Vaccinia mCherry – inhibitors of vaccinia virus infection (mCherry reporter signal) | Vaccinia virus mCherry reporter infection, fluorescence; about a quarter of the inactives have no number | actives 0.63% (n = 310,000) | Potency, µM (doses to about 36.5 µM), for inactives: at the highest dose activity change, negative = inhibition, hits mostly inhibitors; active = well fitted inhibition curve with a large enough effect; inconclusive = small, poorly fitted or top-dose-only effect; inactive = no such curve, though single readings can be large or run the other way; tested in A549 cells; note: nearly all actives have a fitted effect of over 35% in size; inactives centre near -10
VACV Venus inh – inhibitors of vaccinia virus (Venus reporter); Vaccinia virus Venus reporter expression, fluorescence; Potency, µM (doses to about 36.5 µM), for inactives: top-dose activity change, negative = inhibition, most hits filed as inhibitors; actives 0.46% (n = 330,000); active means well fitted inhibition curve with a large enough effect; inconclusive means small, poorly fitted or top-dose-only effect; inactive means no such curve, though single readings can be large or run the other way; tested in A549 cells; note: nearly all actives have a fitted effect of over 30% in size; inactives centre near -10
Active calls of the source: *; i = inactive; u = inconclusive; x = no result given; [ ] = another dose, or the depositor's remark. % is set by controls: 0 for no effect and ±100 for the full control effect; potency is the fitted concentration of half-maximal effect.

SMILES | Vaccinia mCherry | VACV Venus inh
CN1CCC(OC(=O)c2cccc(F)c2)CC1 | i | -22%
S=C1NC[C@H](Cc2ccccc2)N1CCCCC1CCCCC1 | -23% | u
COc1ccc(CCNC(=O)C(=O)NCC(c2ccco2)S(=O)(=O)c2cccs2)cc1 (stereo unspecified) | -16% | -5%
O=C(NCc1cccc(C(F)(F)F)c1)C1CC(c2ccccc2[N+](=O)[O-])=NO1 (stereo unspecified) | -26% | -26%
CCCc1nc2ccccc2n1C(CCSC)C(=O)NC(C)(C)C (stereo unspecified) | 4% | -7%
O=C(NC(=S)Nc1ccccc1O)c1cncc(Br)c1 | 14µM* | u
CN(Cc1ccccc1)N=Nc1ccccc1 | -1% | -10%
CC1=C(C#N)C(c2ccc(O)cc2)C2=C(CC(C)(C)CC2=O)N1 (stereo unspecified) | -17% | -5%
CCCC[n+]1cc(/N=C(\[O-])OC)on1 | -18% | -12%
CN(CC(=O)NCCc1ccc(S(N)(=O)=O)cc1)S(=O)(=O)c1ccc(Br)s1 | -25% | -11%
O=[N+]([O-])c1ccccc1C=NNc1ccccc1 | u | -3%
C=CCc1ccc(O)c(OC)c1 | -18% | -6%
Cc1cc(Br)cn2c(Cc3ccccc3)c(-c3ccc(Cl)cc3)nc12 | -3% | 11%
Cc1ccc(CCNC(=O)C(C)n2nc(C)c3c(C)n(-c4ccccc4)nc3c2=O)cc1 (stereo unspecified) | -10% | -11%
O=C(NCCS(=O)(=O)N1CCCCC1)c1ccc2c(c1)OCO2 | i | -12%
CCC(=O)Nc1cccc(-c2nnc(SCC(=O)NCc3ccco3)n2C)c1 | i | -9%
O=C(C1CC1)N(CCc1ccccc1)Cc1nc2ccccc2c(=O)[nH]1 | x | u
O=c1[nH]c(-c2ccco2)nc2sc3c(c12)CCCC3 | -10% | -18%
CCN(CC)c1ccc(/C=N/NC(=O)CNC(=O)/C=C/c2ccco2)cc1 | -20% | -11%
CCN(C[C@H]1N[C@@](C)(C(=O)OC)[C@H]2C(=O)N(C)C(=O)[C@@H]12)S(=O)(=O)c1ccc(OC(F)(F)F)cc1 | -1% | 1%
Cc1ccc(O)c(C(CC(=O)NCC2(c3ccccc3)CCCC2)c2ccccc2)c1 (stereo unspecified) | -19% | -11%
Cc1ccc(C)c(CNC(=O)c2cnc3sc(N4CCCC4)nn3c2=O)c1 | -16% | -14%
Cc1onc(-c2c(F)cccc2Cl)c1C(=O)O/N=C(\N)c1ccc([N+](=O)[O-])o1 | u | u
COc1cc([C@@H]2[C@H]3CN(C)CC=C3C(C#N)=C(N)C2(C#N)C#N)cc2c1OCO2 | -18% | -11%
Cc1ccccc1Nc1nn2c(=O)c3ccc(C(=O)NCc4ccccc4)cc3nc2s1 | -19% | -24%
COc1ccccc1NC(=O)C(C)OC(=O)c1cccc(-n2cnnn2)c1 (stereo unspecified) | -14% | -10%
CC(C)[C@H](NC(=O)N1c2ccccc2NC(=O)[C@@H]1C(C)C)C(=O)N[C@H](Cc1ccccc1)C(=O)O | -7% | 2%
CN(c1ccc(OCC(=O)N2CCOCC2)cc1)S(=O)(=O)c1ccc(F)cc1 | -13% | 3%
COc1ccc(CNCc2c(C(=O)O)c(C)n(Cc3ccc(Cl)cc3)c2C)c(OC)c1 | i | -3%
CC(Oc1ccccc1Cl)C(=O)Nc1ccc(S(=O)(=O)N2CCCC2)cc1 (stereo unspecified) | i | -27%
S=C(Nc1ccc(Br)cc1Cl)NN1CCOCC1 | -6% | -11%
Cc1cc(C(=O)N/N=C/c2ccc([N+](=O)[O-])cc2)c(C)o1 | 4% | -2%
O=C(Nn1cnc2ccccc2c1=O)c1ccccc1Cl | -5% | -4%
O=C(CCCC(=O)N1CCN(c2ccc([N+](=O)[O-])cc2)CC1)c1ccccc1 | -12% | 2%
CCOc1ccc(S(=O)(=O)N2CCN(C)CC2)c(C)c1C | x | u
CCS(=O)(=O)c1nc(S(=O)(=O)c2ccc(Cl)cc2)c(NCCCN2CCCC2=O)s1 | i[7.34 µM] | -3%[7.34 µM]
CN(C)C(=O)COc1ccc(S(=O)(=O)c2ccc(OCC(=O)N(C)C)cc2)cc1 | i | -12%
CCCCN1C(=O)/C(=C/C=C/c2ccco2)C(=O)NC1=S | -15% | 50%[activator]
CCCC(C(=O)NCc1ccco1)N(C(=O)CNS(=O)(=O)c1ccccc1)C1CCCC1 (stereo unspecified) | x | -10%
CCCCCC(=O)Nc1ccccc1N1CCN(c2ccccc2)CC1 | -13% | -10%

Compound profiles (already shown). Values in the order: Vaccinia mCherry, VACV Venus inh
Results for `CN(C)C(=O)COc1ccc(S(=O)(=O)c2ccc(OCC(=O)N(C)C)cc2)cc1` = i, -12%
Results for `CCCCCC(=O)Nc1ccccc1N1CCN(c2ccccc2)CC1` = -13%, -10%
Results for `COc1cc([C@@H]2[C@H]3CN(C)CC=C3C(C#N)=C(N)C2(C#N)C#N)cc2c1OCO2` = -18%, -11%
Results for `CN(c1ccc(OCC(=O)N2CCOCC2)cc1)S(=O)(=O)c1ccc(F)cc1` = -13%, 3%
Results for `CCCCN1C(=O)/C(=C/C=C/c2ccco2)C(=O)NC1=S` = -15%, 50%[activator]

Retrieved by compound from the entries so far:
SMILES | Vaccinia mCherry | VACV Venus inh
Cc1ccc(O)c(C(CC(=O)NCC2(c3ccccc3)CCCC2)c2ccccc2)c1 (stereo unspecified) | -19% | -11%
COc1cc([C@@H]2[C@H]3CN(C)CC=C3C(C#N)=C(N)C2(C#N)C#N)cc2c1OCO2 | -18% | -11%
Cc1ccccc1Nc1nn2c(=O)c3ccc(C(=O)NCc4ccccc4)cc3nc2s1 | -19% | -24%

The list continues.
SMILES | Vaccinia mCherry | VACV Venus inh
O=C(Nc1cccc(-c2nn[nH]n2)c1)c1ccc(Br)s1 | i | -15%
Nc1nnc(SCC(=O)N2CCc3ccccc3C2)s1 | 8% | 2%
CCOc1ccc(CN2CCc3nc(Nc4ccc(OC)cc4OC)ncc3C2)cc1 | -20% | -9%
O=C(Nc1ccc(F)cc1F)c1c2c(nc3ccccc13)C(=O)N(C1CCCCC1)C2 | -12% | -13%
CS(=O)(=O)NCc1nnc(SCC(=O)NC2CCCCC2)n1-c1ccc(F)cc1 | x | 8%
CC(C)n1c(S(=O)(=O)O)nc2ccccc21 | 7% | -6%
CCN(CC)c1ccc(C2C(C(=O)OCCOC(C)C)=C(C)NC3=C2C(=O)CCC3)cc1 (stereo unspecified) | x | 11%
CCOC(=O)CSc1nc2nc(C)cc(C)n2n1 | -10% | 4%
CN(C)S(=O)(=O)c1ccc(NC(=O)CN2CCCc3ccccc32)cc1 | -25% | -20%
Cc1cc(S(N)(=O)=O)c(N)c(S(N)(=O)=O)c1 | i | -10%
CCC(=O)N1CCC1(C)C(=O)Nc1ccc2c(c1)OCO2 (stereo unspecified) | 6% | -8%
Cn1c(=O)c2nc(SCCO)n(C)c2n(C)c1=O | i | -8%
Cc1ccc(NC(=O)c2ccco2)c(NC(=O)CN2C(=O)c3ccccc3C2=O)c1 | x | 5%
N#CCCn1cc(/C=N/O)c(-c2cccc([N+](=O)[O-])c2)n1 | -2% | -2%
O=C(CSc1nnc(NC(=O)c2ccc(F)cc2)s1)NC1CC1 | i | 0%
O=C(COC(=O)c1ncc(Cl)c(Cl)c1Cl)Nc1ccc(Cl)cn1 | 2% | 13%
Cc1ccc(NS(=O)(=O)c2sc3ccc(Cl)cc3c2C)cc1 | -7% | -21%
Cc1cc(C(=O)Cn2cc(C(F)(F)F)ccc2=O)c(C)n1CC1CCCO1 (stereo unspecified) | -21% | -13%
O=C(CNC(=O)c1nc[nH]c1C(=O)N1CCNCC1)OCc1ccccc1 | -16% | -8%
CCN1CCCC1CNC1=NCCCCC1 (stereo unspecified) | -4% | -3%
CCC(c1nc2ccccc2[nH]1)n1c(=O)c(-c2cccs2)nc2ccccc21 (stereo unspecified) | -2% | -17%
O=C1c2cccnc2C(=O)N1CO | x | -15%
O=C(OCc1c(F)cccc1Cl)c1cccnc1Cl | 0% | -3%
O=C(Nc1ccn(CCCN2CCC(N3CCOCC3)CC2)c(=O)n1)OCc1ccccc1 | -1% | -8%
CC(C)Cn1c(=O)c2ccccc2n2c(-c3ccc(Br)cc3)nnc12 | -13% | -6%
c1ccc(CCNc2ncnc3c2cnn3-c2ccccc2)cc1 | -13% | -15%
CCCCNC(=O)CSc1nc(O)cc(=O)n1C1CCCC1 | -10% | 6%
Cc1ccc(-c2nn(-c3ccccc3)c3[nH]c(=O)c(CNCc4ccccc4)cc23)cc1 | u | -14%
COc1ccc(-c2ccc(OC)c(OC)c2OC)cc1 | -12% | u
Cc1cc(=O)[nH]c2nc(N)ccc12 | -13% | -3%
COc1cc2nc(-c3cccs3)oc(=O)c2cc1OC | -4% | -1%
Oc1ccccc1/C=N/n1c(-c2ccccc2)n[nH]c1=S | -11% | 0%
CCOC(=O)C1NN=C(C(=O)c2ccc(C)cc2)C1c1ccc(C)cc1 (stereo unspecified) | -4% | -5%
COc1ccc(NC(=O)CN(C)C(=O)c2sc3cc(Cl)ccc3c2Cl)cc1 | -11% | -5%
COc1cc(NC(=O)N2CCC3(CC2)Nc2cc(F)ccc2-n2cccc23)cc(OC)c1OC | -21% | -22%
CCC(=O)NNC(=O)CCC(=O)Nc1cccc(Cl)c1C | -8% | -4%
CCOc1cc(/C=N\NC(=O)c2ccc(C)nc2)ccc1OC(=O)c1ccc(F)cc1 | -4% | -15%
Brc1cccc(OCCN2CCCCC2)c1 | -10% | -1%
O=C(c1cscn1)N1CCOc2ccc(CN3CCC(Oc4cccnc4)CC3)cc2C1 | -7% | -5%
C=CCn1c(=N)c(C(=O)NCCCOC)cc2c(=O)n3ccccc3nc21 | -11% | -10%
CCS(=O)(=O)NC(=O)C1(C)CCN1C(=O)C1(c2ccc(Cl)cc2)CC1 (stereo unspecified) | -5% | 11%
COc1ccc(C(=O)Cn2ccsc2=NC(C)=O)cc1 | -15% | -11%
CC[C@]1(C(=O)OC)[C@H]2C(=O)N(Cc3ccccc3)C(=O)[C@H]2[C@H]2CN=C(SCc3ccc(C(=O)OC)cc3)N21 | i | -14%
COc1ccc(-c2c(O)c3c(OC)c4c(cc3oc2=O)OC(C)(C)C=C4)cc1 | i | 0%
CCCNC(=O)c1ccc(-c2nn(C)c(=O)c3ccccc23)cc1 | 2% | -16%
O=C(C[C@@H]1CC[C@@H](NC(=O)Nc2cccc(F)c2)[C@@H](CO)O1)NCC1CCCCC1 | 34%[activator] | -1%
O=C(Nc1cccc(C(=O)N2CCOCC2)c1)c1ccccc1Br | -1% | -18%
CCCCOC(=O)Nc1ccc(N(C)C)cc1 | -14% | -5%
CCOC(=O)/C=C1\SCC(=O)N1CCOc1cccc(Br)c1 | -19% | -21%
CSc1ncc(C(=O)Nc2ccc(C)c(Cl)c2)c(-c2ccccc2)n1 | -11% | -10%
Nc1ncnc2c1ncn2[C@@H]1O[C@H](COP(=O)(O)OP(=O)(O)OC[C@H]2OC(O)[C@H](O)[C@@H]2O)[C@@H](O)[C@H]1O (stereo partly specified) | -4% | -10%
Cc1cccc(N2CCN(C(=O)CCCCn3c(=O)[nH]c4ccsc4c3=O)CC2)c1C | u | -23%
Cc1ccc(NS(=O)(=O)c2cccc(C(=O)NNC(=O)NC3CCCCC3)c2)c(C)c1 | -3% | -9%
CCOC(=O)N1CCN(c2nc(-c3cccs3)cc(C(F)(F)F)n2)CC1 | -13% | -7%
CCOc1ccc(/C=C2\CCC(C3CCCC3)C2=O)cc1 (stereo unspecified) | -12% | -4%
CC1(C(=O)Nc2nccs2)Cc2ccccc2C(=O)O1 (stereo unspecified) | -5% | -6%
O=C(NCc1ccccc1Cl)c1ccc2nc([C@@H]3O[C@H](CO)[C@H](O)[C@H](O)[C@H]3O)[nH]c2c1 | -4% | -10%
CCOc1ccc(C(=O)NCC(c2cccs2)S(=O)(=O)c2ccccc2)cc1 (stereo unspecified) | -14% | -6%
COc1cccc(C(O)c2cnc(C(C)C)n2C)c1 (stereo unspecified) | -15%[7.34 µM] | -2%[7.34 µM]
CCc1ccc(OCC(=O)OCC(=O)c2c(N)n(C)c(=O)n(C)c2=O)cc1 | -3% | -3%
Additional structures.
SMILES | Vaccinia mCherry | VACV Venus inh
CN(C)c1ccc(NC(=O)COC(=O)Cn2nnc3ccccc32)cc1 | -1% | -9%
O=C(CSc1n[nH]c(-c2ccccc2Cl)n1)NCc1cccc(C(=O)O)c1 | i | -2%
Cc1cccc(-c2cc(C(=O)Nc3c(C)n(C)n(-c4ccccc4)c3=O)c3ccccc3n2)c1 | -10% | -12%
CCO[C@@H]1OC(C(=O)N2CCN(Cc3ccc4c(c3)OCO4)CC2)=C[C@H](c2csc3ccccc23)[C@H]1CCCO | -21% | -24%
CCOC(=O)CC1(CCc2ccccc2)Oc2ccccc2N1S(=O)(=O)c1ccc(C)cc1 (stereo unspecified) | -27% | 0%
CNC(=O)c1ccc(NC(=O)CN2c3cccc4cccc(c34)S2(=O)=O)cc1 | -11% | -20%
Cc1ccc(-c2nc(CS(=O)(=O)CC(=O)N3CCN(c4ccccc4)CC3)c(C)o2)cc1 | u | -30%
CCCCSCCCNC(=O)c1ccc(CS(=O)(=O)c2ccc(OC)cc2)o1 | -27% | -19%
O=[N+]([O-])c1ccc(N2CCNCC2)cc1N1CCCCCC1 | u | u
COc1ccc(Cl)cc1NC(=O)CN(C)C(=O)c1cccc(S(=O)(=O)N2CCN(C)CC2)c1 | i | -17%
Cc1cc2oc(=O)cc(CN3CCOCC3)c2cc1O | -5% | -6%
CCN(c1ccccc1)c1nc2nonc2nc1NCCO | 8% | 14%
O=c1[nH]n(-c2ccc([N+](=O)[O-])cc2)c(=O)c2ccccc12 | 1% | -4%
CC(C)(C)NC(=O)c1ccc(C(=O)NC(C)(C)C)cc1 | -4% | 13%

Assay outcomes as filed in PubChem.
